# Bioassay records as filed in PubChem.
# MITF inhib: blocks MITF activity; TRPM1 promoter luciferase, luminescence, 24 h; inhibition, % (test concentration not listed); AID 2240; 37,000 tested, 0.28% active;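 active means most replicates at 85% or more, or half of them and the mean; inconclusive means half reach 85% but not the mean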;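 further: human melanocyte line stably carrying TRPM1 promoter luciferase reporter; 0% = vehicle wells and 100% = a positive control; the first replicate is given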
# PD-1 reverse act: reversal of PD-1 mediated T-cell inhibition; primary human CD4 T cells, PD-L1 beads, CellTiter-Glo 96 h; activation, % (no concentration beside the values); 29,000 tested, under 10 active;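 active means replicate mean of 50% or more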;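 further: 0% = median vehicle wells and 100% = positive control; 100 nL library stock added to about 50 µL; numbers are from one replicate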
# Shh pathway inh: blocks Sonic Hedgehog signaling. Shh-LIGHT2 Gli-luciferase reporter, 30 h. inhibition, % (no concentration beside the values). 22,000 tested, 2.1% active. AID 2313;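 active means replicate mean of 65% or more; inconclusive means mean lower but half the replicates past it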;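 further: pathway switched on by Shh-conditioned medium diluted 1 in 25 in low serum; 100 nL library stock added to about 40 µL; 0% = median of neutral wells and 100% = positive control level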
# YB-1 expr inh: YB-1 expression inhibition. U2OS, qRT-PCR YB-1 vs CDIP delta delta Cp, 16 h; stronger effect = higher value; zero = DMSO, each unit about twofold. delta delta Cp (YB-1 minus CDIP) (concentration not given with the values). 30,000 tested, 0.37% active. AID 434959;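 active means delta delta Cp rounded down to an integer at or above 3, about 3 SD of DMSO wells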;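 further: higher means less YB-1 transcript or more CDIP transcript relative to DMSO; stock transfer was 100 nL into about 100 µL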
# * hit, by the source's call; ? = inconclusive; / = not tested or not shown. Not all compounds are listed. The share of hits here may be higher or lower than overall.
structure	Shh pathway inh	PD-1 reverse act	MITF inhib	YB-1 expr inh
Cc1cccc(NC(=O)CN(c2ccccc2F)S(C)(=O)=O)c1	/	0.4	-2	/
CCOC(=O)c1nnn2c1nc(Sc1nnc(-c3ccncc3)n1C)c1ccccc12	-13	-4.9	7	-0.79
C[C@@H]1CN([C@@H](C)CO)C(=O)c2cccc(NC(=O)C3CCCCC3)c2O[C@H]1CN(C)Cc1ccc(C(F)(F)F)cc1	26	-2.2	22	-0.28
CC1(C)CC(=O)c2c([nH]c(-c3ccccc3)c2-c2ccccc2)C1	-28	-7.5	3	0.7
C[C@@H]1CN([C@H](C)CO)C(=O)c2cccc(NS(=O)(=O)c3ccc(F)cc3)c2O[C@@H]1CN(C)Cc1ccc(-c2ccccc2)cc1	18	-1.0	-18	0.19
O=C(O)CCC(=O)Nc1ccc(NC(=O)c2cccs2)cc1	/	2.0	0	/
Cc1noc(C)c1S(=O)(=O)N(C)C[C@@H]1Oc2ccc(NS(C)(=O)=O)cc2CC(=O)N([C@@H](C)CO)C[C@@H]1C	-10	-1.7	-4	0.28
CCCn1c(-c2ccc(F)cc2)n[nH]c1=O	8	1.1	-6	0.063
C[C@H](CO)N1C[C@H](C)[C@H](CN(C)S(=O)(=O)c2cn(C)cn2)Oc2ccc(NC(=O)Cn3cnnn3)cc2CC1=O	23	/	-2	0.08
C[C@@H]1CN([C@H](C)CO)C(=O)Cc2cc(NC(=O)Nc3ccc(F)cc3)ccc2O[C@@H]1CN(C)Cc1ccc2c(c1)OCO2	7	-0.1	24	-0.033
C[C@@H]1CCCCO[C@H](CN(C)C)[C@@H](C)CN([C@H](C)CO)C(=O)c2cc(NC(=O)Nc3cccc4ccccc34)ccc2O1	-4	1.0	1	0.12
C[C@@H]1CN([C@H](C)CO)C(=O)Cc2cc(NC(=O)Nc3ccc4c(c3)OCO4)ccc2O[C@@H]1CN(C)C(=O)Nc1ccc(C(F)(F)F)cc1	25	2.1	0	-0.24
Cc1ccccc1NC(=O)CN1C(=O)c2ccccc2C1=O	/	-0.1	8	0.3
CCc1ccc(-n2nc3ccc(NC(=O)COc4ccccc4[N+](=O)[O-])cc3n2)cc1	/	1.1	-15	/
Cc1cc(OCC(=O)Nc2ccc(CC#N)cc2)ccc1[N+](=O)[O-]	/	-0.5	1	/
O=C1CC(c2ccc(O)cc2)Oc2c1c(O)cc(O)c2C1C(=O)c2c(O)cc(O)cc2OC1c1ccc(O)c(O)c1 (stereo not drawn)	-34	/	/	0.5
C[C@H]1CN([C@@H](C)CO)C(=O)Cc2cc(NC(=O)Nc3cccc4ccccc34)ccc2O[C@@H]1CN(C)Cc1ccc2c(c1)OCO2	-4	/	26	0.063
O=C(CSc1n[nH]c(-c2ccc(Cl)cc2)n1)Nc1ccccc1Cl	/	-7.4	-10	/
CC(Sc1ncn(-c2ccccc2)n1)C(=O)Nc1ccc(Cl)cc1 (stereo not drawn)	/	0.6	-1	/
COc1cccc(CNc2nc3ccccc3n2CCN2CCOCC2)c1O	/	-0.2	-15	/

# Full records, quoted from the list:
# Results for COc1cccc(CNc2nc3ccccc3n2CCN2CCOCC2)c1O = Shh pathway inh: /; PD-1 reverse act: -0.2; MITF inhib: -15; YB-1 expr inh: /
# Results for O=C1CC(c2ccc(O)cc2)Oc2c1c(O)cc(O)c2C1C(=O)c2c(O)cc(O)cc2OC1c1ccc(O)c(O)c1 (stereo not drawn) = Shh pathway inh: -34; PD-1 reverse act: /; MITF inhib: /; YB-1 expr inh: 0.5

# (cont.)
structure	Shh pathway inh	PD-1 reverse act	MITF inhib	YB-1 expr inh
CC(C)NC(=O)Nc1cccc2c1O[C@@H](CN(C)Cc1ccccc1)[C@@H](C)CN([C@@H](C)CO)C2=O	-83	1.1	1	0.18
CC(C)NC(=O)N(C)C[C@@H]1Oc2ccc(NS(=O)(=O)c3cn(C)cn3)cc2CC(=O)N([C@H](C)CO)C[C@@H]1C	-12	0.2	-4	0.031
C[C@@H]1CN([C@@H](C)CO)C(=O)c2cccc(NS(=O)(=O)c3cccs3)c2O[C@H]1CN(C)Cc1ccc(Cl)c(Cl)c1	-3	/	-26	-0.039
Cc1noc(C)c1NC(=O)N(C)C[C@@H]1Oc2ccc(NC(=O)CCCN(C)C)cc2C(=O)N([C@@H](C)CO)C[C@@H]1C	-26	2.1	-13	-0.073
CC(C)(C)NC(=O)c1ccccc1	-14	-0.3	-23	-0.31
Cc1ccc2nc(-c3ccncc3)cc(C(=O)NC(C)c3cnn(C)c3C)c2c1 (stereo not drawn)	/	1.2	5	/
CC(=O)Nc1c(N)c2ccccc2oc1=O	/	-0.1	2	0.086
CCc1ccc(NC(=O)CSc2nnc(-c3ccc(Cl)cc3)n2C)cc1	/	4.8	0	/
CC1OC(Oc2cc(O)c3c(=O)c(OC4OC(CO)C(O)C(O)C4OC4OC(C)C(O)C(O)C4O)c(-c4ccc(O)cc4)oc3c2)C(O)C(O)C1O (stereo not drawn)	-8	/	/	-0.15
COc1ccc(CN(C)C[C@@H]2Oc3c(NC(=O)NC4CCCCC4)cccc3C(=O)N([C@H](C)CO)C[C@H]2C)cc1	-18	/	40	0.053
COc1ccc(S(=O)(=O)Nc2ccc3c(c2)C(=O)N([C@H](C)CO)C[C@@H](C)[C@@H](CN(C)S(=O)(=O)c2ccc(OC)cc2)O3)cc1	-1	1.3	-10	0.22
C[C@H]1CN([C@@H](C)CO)C(=O)c2cccc(NC(=O)Nc3ccc(F)cc3)c2O[C@H]1CN(C)S(=O)(=O)c1cccs1	20	-1.4	-7	-0.061
C[C@H]1CN([C@@H](C)CO)C(=O)c2cccc(NS(=O)(=O)c3ccccc3)c2O[C@@H]1CN(C)CC1CC1	-31	1.5	-14	0.0068
COC(=O)C[C@H]1[C@]2(C)C3=C(C)[C@H](c4ccoc4)C[C@H]3O[C@@H]2[C@H](O)C2[C@](C)(C(=O)OC)C=CC(=O)[C@@]21C (stereo partly drawn)	17	/	/	0.034
C[C@H](CO)N1C[C@H](C)[C@H](CN(C)Cc2ccc(C(F)(F)F)cc2)Oc2ccc(NC(=O)Nc3ccccc3)cc2C1=O	/	/	21	-0.067
C[C@H](CO)N1C[C@H](C)[C@H](CN(C)Cc2ccc(Cl)c(Cl)c2)Oc2ccc(NC(=O)Cc3ccccc3)cc2C1=O	-21	-1.5	22	-0.53
Cc1ccc2c(c1)c1c3n2CCNC3CCC1 (stereo not drawn)	54	/	-13	-0.32
CC1OC(Oc2cc(O)c(C3OC(C)C(O)C(O)C3O)c3oc(-c4ccc(O)cc4)cc(=O)c23)C(O)C(O)C1O (stereo not drawn)	-33	/	/	0.93
Cc1ccc(NC(=O)C(C)Sc2nnc(C)s2)cc1 (stereo not drawn)	/	-0.9	-3	/
S=C(NCc1ccccc1Cl)NC12CC3CC(CC(C3)C1)C2	?	-9.1	47	0.15
C[C@H](CO)N1C[C@H](C)[C@H](CN(C)Cc2ccc(-c3ccccc3)cc2)Oc2ccc(NS(C)(=O)=O)cc2CC1=O	-20	-6.5	15	0.2
C[C@@H]1CN([C@H](C)CO)C(=O)c2cc(NC(=O)NC3CCCCC3)ccc2O[C@@H]1CN(C)Cc1ccc(Cl)c(Cl)c1	3	-0.6	-15	-0.47
COc1ccc(S(=O)(=O)Nc2ccc3c(c2)CC(=O)N([C@@H](C)CO)C[C@H](C)[C@H](CN(C)C(=O)Nc2c(C)noc2C)O3)cc1	12	/	0	0.067
COc1ccc(C)cc1NC(=O)CSc1nc2ccccc2c(=O)n1-c1ccc(Cl)cc1	/	-2.7	-1	/
COc1ccc(Nc2nc(N)nc(CSc3nncn3C)n2)cc1	/	2.4	-34	/
CN(C)CCNc1oc(COc2ccc(Br)cc2)nc1C#N	/	-1.5	-24	/
Cc1cc(C(=O)Sc2cccc(Br)c2)nn1C(C)(C)C	?	-9.4	-9	-0.18
COc1ccc(CN(C)C[C@@H]2Oc3ccc(NS(=O)(=O)c4ccccc4)cc3C(=O)N([C@H](C)CO)C[C@@H]2C)cc1	-22	-1.2	2	0.17
C[C@@H]1CN([C@H](C)CO)C(=O)Cc2cc(NS(=O)(=O)c3cn(C)cn3)ccc2O[C@@H]1CN(C)S(C)(=O)=O	21	/	-9	0.31
CNC[C@@H]1Oc2ccc(NC(=O)C3CC3)cc2C(=O)N([C@H](C)CO)C[C@H]1C	/	2.1	-7	-0.0023
C[C@H]1CN([C@@H](C)CO)C(=O)c2cccc(NC(=O)CCCCCC(=O)Nc3ccccc3N)c2O[C@@H]1CN(C)C(=O)Nc1ccc(F)cc1	/	0.2	-7	-0.24
C[C@@H]1CCCCO[C@H](CN(C)S(=O)(=O)c2ccccc2)[C@@H](C)CN([C@H](C)CO)C(=O)c2cc(NS(=O)(=O)c3ccccc3)ccc2O1	/	0.6	6	-0.38
COc1ccc(OC)c(N(CC(=O)Nc2cccc(Cl)c2C)S(C)(=O)=O)c1	/	-0.1	-14	/
CNC[C@@H]1Oc2ccc(NC(=O)Nc3ccc(OC)cc3)cc2C(=O)N([C@H](C)CO)C[C@@H]1C	/	/	4	0.28
CCC(Oc1cccc(NC(=O)c2cccc(OC)c2)c1)C(=O)c1ccccc1 (stereo not drawn)	/	-0.4	-10	/
O=C(CCN1C(=O)c2ccccc2S1(=O)=O)Nc1cccc2ccccc12	/	1.6	-18	/
Cc1ccc(S(=O)(=O)N(C)C[C@@H]2Oc3ccc(NS(C)(=O)=O)cc3CC(=O)N([C@@H](C)CO)C[C@@H]2C)cc1	9	/	-4	-0.4
C[C@H]1CN([C@@H](C)CO)C(=O)c2cc(NC(=O)Nc3cccc4ccccc34)ccc2O[C@H]1CN(C)C(=O)Nc1ccc(C(F)(F)F)cc1	-36	-1.0	13	-0.24
C[C@@H]1CN([C@@H](C)CO)C(=O)c2cc(NC(=O)CCN3CCOCC3)ccc2O[C@H]1CN(C)Cc1ccc(C(F)(F)F)cc1	9	/	-6	0.65
COc1ccc(NC(=O)N(C)C[C@@H]2Oc3ccc(NC(=O)c4ccncc4)cc3C(=O)N([C@@H](C)CO)C[C@H]2C)cc1	/	-0.2	7	-0.25
C[C@@H]1CCCCO[C@@H](CN(C)Cc2ccc(Cl)c(Cl)c2)[C@@H](C)CN([C@H](C)CO)C(=O)c2cc(NS(=O)(=O)c3ccc(F)cc3)ccc2O1	-48	-4.7	20	-0.022
COc1ccc(NC(=O)Nc2cccc3c2O[C@H](CN(C)C(=O)NC2CCCCC2)[C@H](C)CN([C@@H](C)CO)C3=O)cc1	?	0.0	8	0.058
Cc1ccc(S(=O)(=O)N(C)C[C@H]2Oc3c(NC(=O)c4nc5ccccc5s4)cccc3C(=O)N([C@H](C)CO)C[C@@H]2C)cc1	31	-4.7	18	-0.5
C[C@H](CO)N1C[C@H](C)[C@H](CN(C)S(=O)(=O)c2ccc(F)cc2)Oc2c(NC(=O)C3CC3)cccc2C1=O	103*	0.5	7	0.097
C[C@@H]1CN([C@H](C)CO)C(=O)c2cc(NC(=O)Nc3ccc4c(c3)OCO4)ccc2O[C@H]1CN(C)C(=O)Nc1ccccc1	/	0.8	-8	-0.12
Cc1ccc(S(=O)(=O)Nc2cccc3c2O[C@H](CN(C)Cc2ccc(-c4ccccc4)cc2)[C@@H](C)CN([C@@H](C)CO)C3=O)cc1	-28	2.1	15	0.45
Cc1c(O)nc(SC2CC(=O)N(c3ccccc3)C2=O)[nH]c1=O (stereo not drawn)	/	2.2	-7	/
COC1CC(OC2CCC3(C)C(CCC4(O)C3CC(OC(=O)c3ccccc3)C3(C)C(O)(C(C)=O)CCC43O)C2)OC(C)C1OC1CC(OC)C(OC2OC(C)C(OC3OC(CO)C(O)C(O)C3O)C(OC)C2O)C(C)O1 (stereo not drawn)	0	2.3	4	-0.57
C[C@@H]1CN([C@@H](C)CO)C(=O)c2cccc(NC(=O)c3nc4ccccc4s3)c2O[C@H]1CN(C)C(=O)Nc1ccc(F)cc1	-26	-2.0	-1	0.25
COc1ccc(OCC(=O)Nc2cc(Cl)ccc2N2CCOCC2)cc1	/	-5.4	9	/
COc1cc(O[C@@H]2O[C@H](CO)[C@@H](O)[C@H](O)[C@H]2O)c2c(=O)cc(-c3ccccc3)oc2c1OC	-9	0.0	-7	-0.2
C[C@@H]1CCCCO[C@@H](CN(C)Cc2ccc3c(c2)OCO3)[C@@H](C)CN([C@H](C)CO)C(=O)c2cc(NS(=O)(=O)c3cn(C)cn3)ccc2O1	-21	/	9	0.052

# Ordered by formula weight (highest first): three of the compounds above.
structure	Shh pathway inh	PD-1 reverse act	MITF inhib	YB-1 expr inh
C[C@@H]1CN([C@H](C)CO)C(=O)Cc2cc(NC(=O)Nc3ccc4c(c3)OCO4)ccc2O[C@@H]1CN(C)C(=O)Nc1ccc(C(F)(F)F)cc1	25	2.1	0	-0.24
COc1ccc(S(=O)(=O)Nc2ccc3c(c2)CC(=O)N([C@@H](C)CO)C[C@H](C)[C@H](CN(C)C(=O)Nc2c(C)noc2C)O3)cc1	12	/	0	0.067
C[C@H]1CN([C@@H](C)CO)C(=O)c2cccc(NS(=O)(=O)c3ccccc3)c2O[C@@H]1CN(C)CC1CC1	-31	1.5	-14	0.0068
